Bioassay records (PubChem BioAssay)
Rce1 inh – inhibitors of yeast Ras-converting enzyme; AID 2563; 290,000 tested, 0.27% active; calls only; yeast membranes, quenched prenylated peptide cleavage fluorescence;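 active = fall in fluorescence gain of 50% or more versus controls, with final raw signal at or below 3038400; inconclusive = same 50% fall but final raw signal above 3038400; inactive = fall in fluorescence gain under 50%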;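 also: plate controls were neutral control wells for no effect and wells lacking membranes for full effect; tested at 10 µM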
Target sequence (Q03530 whole entry, looked up): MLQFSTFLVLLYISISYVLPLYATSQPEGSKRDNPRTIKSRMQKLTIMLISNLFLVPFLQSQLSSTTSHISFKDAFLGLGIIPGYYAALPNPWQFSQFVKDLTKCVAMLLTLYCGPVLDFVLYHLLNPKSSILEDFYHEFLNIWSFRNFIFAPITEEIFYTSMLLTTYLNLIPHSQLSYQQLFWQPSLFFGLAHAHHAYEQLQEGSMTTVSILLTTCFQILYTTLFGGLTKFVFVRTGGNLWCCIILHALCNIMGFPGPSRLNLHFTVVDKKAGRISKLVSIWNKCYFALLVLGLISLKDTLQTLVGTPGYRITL
CSC inhib – blocks cancer stem cells; cancer stem cell-like cells viability, luminescence; inhibition, % at 7.5 µM; 300,000 tested, 1.1% active;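 active = mean at 75% or more and at least half the replicates too; inconclusive = mean and replicates disagree; tested in HMLE shEcad cells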;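 also: 0% = median of negative and 100% = median of positive control wells; the first replicate is given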
Yeast UUG start – modulators of start codon recognition fidelity in yeast; activity score, % at 18.7 µM; 350,000 tested, 0.13% active; S. cerevisiae UUG-firefly luciferase reporter, luminescence/redox ratio;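 active = replicate mean at a twofold rise or more, about +100% in these data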;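 also: firefly luciferase made from a UUG start codon reports start codon fidelity; reporter light over untreated wells divided by growth signal over untreated wells; some hits fall short of that in this replicate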
HIV Env fusion – inhibitors of HIV Env-mediated cell fusion; HeLa-JRFL Env/CEM21 cell fusion, luciferase; inhibition, % at 12.3 µM; 360,000 tested, 1.1% active; AID 651610;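 active = mean replicate inhibition score of at least 50 and every replicate individually at or above 50; inconclusive = only one of the two criteria met; inactive = mean below 50 and not all replicates reaching 50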;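 also: 0% = plate neutral controls and 100% = maraviroc near 300 nM; one replicate is shown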
PABP polyA inh – blocks human PABP binding to poly(A) RNA; AID 2014; inhibition, % at 35 µM; 290,000 tested, 1% active; fluorescence polarization; P11940;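 active = 50% or more with normal probe brightness, or confirmed in later tests; inconclusive = above 50% with abnormal brightness, or retests that disagree; inactive = below 50% or failed in later tests; about a fifth of its hits are not listed in these tables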;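 also: calls also rest on retests at 20 µM and on dose response follow-up; controls were probe without protein and protein plus probe with vehicle; some compounds called inactive have numbers as strong as hits; many hits fall short of the cut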
MT1-MMP act inh – blocks activation of human MT1-MMP. P50281. HT1080 RFP-PRO-GFP cells, GFP/RFP ratio fluorescence, overnight; percent of plate control window, DMSO zero. 360,000 tested, 0.061% active. GFP/RFP ratio change, % at 20 µM;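 active = GFP/RFP ratio change of at least 30% with cell ATP level not reduced by more than half and red fluorescence within 50% of control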; also: strong numbers were not always called active
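Assay system: HT1080 cells carrying an RFP-PRO-GFP reporter | Dosing: Single dose of 20 µM compound, 1% DMSO final | Incubation: Cells overnight before dosing, compound overnight, 37 °C, 5% CO2 | Evaluation: GFP/RFP fluorescence ratio | Control set: DMSO and RFP-L50D-GFP cell wells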
eIF4H inh – inhibitors of RNA binding by human eIF4H | eIF4H fluorescence polarization binding assay | Q15056 | inhibition, % at 35 µM | 290,000 tested, 0.94% active;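 active = 50% or more with normal probe brightness, or confirmed in later tests; inconclusive = above 50% with abnormal brightness, or retests that disagree; inactive = below 50% or failed in later tests; about a fifth of its hits are not listed in these tables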;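 also: calls also rest on retests at 20 µM and on dose response follow-up; 0% = protein and probe with vehicle and 100% = probe without protein; strong numbers were not always called active; many hits fall short of the cut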
MT1-MMP act inh RFP – further read-out of MT1-MMP act inh, marked with its call; RFP signal change, %; measured here: RFP expression control read;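 0 = vehicle wells; hits needed this value within 50% of zero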
An asterisk follows results filed as active; i = inactive; ? = inconclusive; · = not tested or not shown.

| Compound | Rce1 inh | CSC inhib | Yeast UUG start | HIV Env fusion | PABP polyA inh | MT1-MMP act inh | MT1-MMP act inh RFP | eIF4H inh |
| --- | --- | --- | --- | --- | --- | --- | --- | --- |
| O=C(CN1C(=O)NC(Cc2ccccc2)C1=O)Nc1ccc(F)c(F)c1F (centres undefined) | · | -4 | -13 | 12 | · | -2 | -2 | · |
| COc1ccccc1C1C2CCCCC2(O)CCN1CC(=O)Nc1ccccc1 (centres undefined) | i | 16 | 4 | · | -6 | -9 | -1 | 2 |
| CN(c1ccccc1)P(=O)(N(C)c1ccccc1)N(C)c1ccccc1 | i | 27 | -7 | 24 | 14 | -1 | -5 | -1 |
| Cn1c(=O)[nH]c(=O)c2c1nc(SCCN1CCOCC1)n2Cc1ccccc1 | i | -10 | -8 | · | -4 | 6 | 4 | -8 |
| CC1(C)Oc2ccc(C(=O)NC3CCCC3)cc2N(CC(=O)NC2CCCCC2)C1=O | i | · | -16 | -27 | -10 | 1 | 3 | -5 |
| Cc1ccc(F)cc1NC(=O)CSc1nnc(CNC(=O)c2ccco2)n1C | i | -4 | · | · | · | 2 | 1 | · |
| Cc1cc(C)cc(N(CC(=O)NCc2ccco2)C(=O)CCC(=O)Nc2ccccn2)c1 | i | · | -16 | · | -10 | -4 | 3 | -2 |
| Cc1cc(O)c(-c2cc(C(=O)Nc3ccc(S(=O)(=O)N4CCOCC4)cc3)[nH]n2)cc1C | i | 71 | -13 | -35 | 5 | -2 | -14 | -7 |
| CCc1ccc(N(C(=O)c2csnn2)C(C(=O)NC2CCCCC2)c2cccnc2)cc1 (centres undefined) | i | 1 | · | 15 | 9 | 1 | 4 | 2 |
| Cc1sc2nc(-c3ccco3)oc(=O)c2c1C | i | -13 | -12 | · | 3 | 2 | 4 | 8 |

The list goes on; the last 2 above are carried over.
| Compound | Rce1 inh | CSC inhib | Yeast UUG start | HIV Env fusion | PABP polyA inh | MT1-MMP act inh | MT1-MMP act inh RFP | eIF4H inh |
| --- | --- | --- | --- | --- | --- | --- | --- | --- |
| CCc1ccc(N(C(=O)c2csnn2)C(C(=O)NC2CCCCC2)c2cccnc2)cc1 (centres undefined) | i | 1 | · | 15 | 9 | 1 | 4 | 2 |
| Cc1sc2nc(-c3ccco3)oc(=O)c2c1C | i | -13 | -12 | · | 3 | 2 | 4 | 8 |
| COc1ccccc1CC(=O)Nc1ccc(-c2nnc(-c3ccco3)o2)cc1 | i | -5 | -6 | -192 | 10 | 7 | 1 | -7 |
| CCOc1c(Cl)cc(CNCC(C)C)cc1OC | i | · | · | 7 | 5 | 3 | 3 | -5 |
| CCN(CC(=O)Nc1cc(Cl)ccc1C)C(=O)c1cc([N+](=O)[O-])ccc1N1CCOCC1 | i | 5 | -9 | · | · | -2 | -4 | · |
| C=CCN(C(=O)Cn1nc(C)n2c(cc3cc(C)ccc32)c1=O)c1ccccc1 | i | -11 | -30 | -5 | 5 | -2 | -2 | -3 |
| O=C(/C=C/Nc1ccc(F)cc1)c1ccco1 | i | · | 20 | · | 15 | 0 | 6 | -5 |
| CCOC(=O)c1cc(C#N)c(SC)nc1C | i | -4 | · | 9 | -2 | 2 | 4 | -7 |
| COc1ccc(/C=N/NC(=O)c2cccnc2)c(C(=O)O)c1OC | i | 5 | -10 | -4 | 5 | -2 | 4 | -4 |
| COc1ccccc1CN1CC(C(=O)NCCCc2ccc(F)cc2)CCC1=O (centres undefined) | i | 4 | 2 | 4 | 11 | 1 | -3 | 3 |
| Cn1c(C(=O)N2COCC2(C)C)cc2c(=O)n3ccccc3nc21 | ? | -4 | -14 | -55 | -1 | 2 | 2 | 1 |
| COCCn1c(=O)[nH]c2cc(C(=O)OC)ccc2c1=O | i | -6 | -15 | -13 | -3 | -1 | 2 | 0 |
| Cc1cccc2sc(NC(=O)C3=NN(c4ccccc4)C(=O)CC3)nc12 | i | -8 | · | -11 | -1 | -8 | -3 | -5 |
| N/C(=N\OC(=O)c1cc(-c2ccccc2)nc2ccccc12)c1ccncc1 | i | 14 | -23 | · | -12 | -4 | -6 | -4 |
| Cc1ccc(CSc2ccc(C(=O)N3CCOCC3)cc2[N+](=O)[O-])cc1 | i | -14 | · | -22 | -8 | 3 | -2 | -3 |
| O=C1CCCc2nc(N3CCCCC3)sc21 | i | · | -7 | · | -5 | 14 | 4 | -16 |
| N#C/C(=C/C=C/c1ccccc1)C(=O)Nc1ccccc1 | · | 4 | -12 | · | -12 | -7 | -16 | 4 |
| COc1ccc(OCC(=O)N/N=C/C2CC=CCC2)cc1 (centres undefined) | i | -10 | · | -12 | 4 | 2 | 3 | 1 |
| COC(=O)c1ccc(Cn2c(C)c(C(=O)NCc3ccco3)sc2=O)o1 | · | · | -14 | 3 | · | -2 | -7 | · |
| CCCCn1c(N)c(N(CCOC)C(=O)COc2c(C)cccc2C)c(=O)[nH]c1=O | i | -8 | · | 17 | · | 0 | 3 | · |
| CCSc1nnc(NC(=O)Cc2ccc(OC)c(S(=O)(=O)N3CCOCC3)c2)s1 | i | -11 | -7 | -45 | -1 | 5 | 4 | -10 |
| CCn1c(CC(=O)Nc2ccc(Cl)cc2)nnc1SCC(=O)N1CCOCC1 | i | -5 | -11 | 6 | 11 | -1 | -1 | -10 |

A few values from the entries so far.
In PABP polyA inh, `Cn1c(C(=O)N2COCC2(C)C)cc2c(=O)n3ccccc3nc21` is entered as -1
In eIF4H inh, `CCn1c(CC(=O)Nc2ccc(Cl)cc2)nnc1SCC(=O)N1CCOCC1` is entered as -10

A second format for some results above:
Every second line gives: Rce1 inh, CSC inhib, Yeast UUG start, HIV Env fusion, PABP polyA inh, MT1-MMP act inh, MT1-MMP act inh RFP, eIF4H inh
> Cc1ccc(CSc2ccc(C(=O)N3CCOCC3)cc2[N+](=O)[O-])cc1
→ i, -14, ·, -22, -8, 3, -2, -3
> CCSc1nnc(NC(=O)Cc2ccc(OC)c(S(=O)(=O)N3CCOCC3)c2)s1
→ i, -11, -7, -45, -1, 5, 4, -10

Next part:
| Compound | Rce1 inh | CSC inhib | Yeast UUG start | HIV Env fusion | PABP polyA inh | MT1-MMP act inh | MT1-MMP act inh RFP | eIF4H inh |
| --- | --- | --- | --- | --- | --- | --- | --- | --- |
| Cc1ccc(C)c(C(=O)COc2ccc(C)nc2[N+](=O)[O-])c1 | i | 5 | -19 | · | 7 | -5 | 7 | 6 |
| Cc1nc(/C(=N/O)C(N)=O)cs1 | · | -5 | 9 | 4 | -5 | -2 | 4 | -6 |
| CCCCC(=O)Nc1ccc(Cl)cn1 | i | -10 | -16 | · | 0 | -2 | 0 | 3 |
| CC(NC(=O)c1ccco1)C(=O)O (centres undefined) | · | -17 | -17 | 4 | · | -1 | 3 | · |
| CN(Cc1ccccc1)C(=O)COC(=O)c1ccc(Cl)cc1N | i | -5 | · | -6 | -11 | -5 | -6 | 6 |
| COc1ccc(Nc2nc(C(=O)N3CCc4ccccc4C3)cs2)cc1 | i | 40 | · | 12 | -5 | 1 | -3 | 4 |
| COc1ccc(-c2cc(=O)[nH]c(=S)[nH]2)cc1 | i | -6 | -7 | 8 | -12 | -3 | -6 | 4 |
| CCCn1c(=O)c(C(=O)c2ccccc2)nc2ccccc21 | i | -6 | -5 | 0 | -1 | -1 | 2 | -8 |
| CC1(c2nnc(Cc3ccccc3)o2)CC(c2ccc(OC(F)(F)F)cc2)=NO1 (centres undefined) | i | 12 | -3 | -23 | · | 5 | -2 | · |
| COc1ccc(N(CC(=O)Nc2ccccc2C(=O)N2CCCC2)S(C)(=O)=O)cc1 | i | 0 | -2 | -10 | -4 | -4 | -3 | -8 |

(next part)
SMILES	Rce1 inh	CSC inhib	Yeast UUG start	HIV Env fusion	PABP polyA inh	MT1-MMP act inh	MT1-MMP act inh RFP	eIF4H inh
Cc1ccc(-n2nc(N)c3c(=O)oc(N(C)C)nc32)cc1	i	0	-12	-450	-5	9	2	-2
Cc1nc(SCCO)c2oc3ccccc3c2n1	i	4	-12	·	-1	-1	3	-4
Cc1nnc(NC(=O)CSc2nnc(Cc3cccn3C)n2-c2cccc(C)c2C)s1	i	-6	·	·	0	·	·	-2
Cc1nnc(SCC(=O)N2c3ccccc3CC2C)[nH]c1=O (centres undefined)	i	·	·	3	-4	3	4	-12
COC(=O)c1ccc(NC(=O)CN(C2CCCCC2)S(C)(=O)=O)cc1	i	6	-3	·	-5	2	-2	-17
Cc1ccc(SCCc2cc[n+](CC(=O)c3ccccc3)cc2)cc1	i	26	·	-16	-4	-7	4	14
O=C(Nc1ccc(Br)cc1)c1cccc(NC(=O)C2C3CC4OC(=O)C2C4C3)c1 (centres undefined)	i	-8	-8	?	-1	5	0	-1
COc1cc(NC(=O)CC[C@H]2O[C@@H](n3cnc4c(NC(=O)c5ccccc5)ncnc43)[C@H](O)[C@@H]2O)cc(OC)c1OC	·	·	16	20	·	1	6	·
C/C=C(\C)C(=O)OC1c2c(ccc3ccc(=O)oc23)OC(C)(C)C1OC(C)=O (centres undefined)	i	·	7	-28	8	-1	0	-4
COc1ccc(C(CC(=O)O)n2cnnn2)cc1 (centres undefined)	i	-10	·	11	5	0	6	4
O=C(CCN1C(=O)c2ccccc2S1(=O)=O)NCc1ccc(F)cc1	i	·	-17	-9	·	-1	5	·
c1ccc(Cn2nnc3c(NCC4CCCO4)nc(C4CC4)nc32)cc1 (centres undefined)	i	-7	·	8	-1	2	-1	-11
O=C(c1cc2nc(-c3ccccc3)cc(C(F)(F)F)n2n1)N1CCOCC1	i	-4	-7	·	-18	7	-1	5
Cc1cccc(OCC(=O)NCC(=O)N=Nc2c(O)[nH]c3ccc([N+](=O)[O-])cc23)c1	i	·	0	-1	1	0	-1	18
COc1ccccc1CN(Cc1ccco1)S(=O)(=O)c1ccc(-n2cnnn2)c(OC)c1	i	2	0	·	-12	4	-1	-5
COc1ccccc1N(CC(=O)NCCc1ccccc1)C(=O)CCC(=O)Nc1nccs1	i	-10	7	-3	12	4	-3	5
O=C1C2=C(c3ccccc31)[N+](=O)[C@@H]1CCCC[C@@H]1N2[O-]	·	-6	-6	·	1	4	2	8
COCCN(C(=O)Cc1cccs1)C(C(=O)NCc1ccc(OC)cc1)c1ccc(C(C)C)cc1 (centres undefined)	i	8	-13	-34	-4	-19	-17	-2
COC(=O)/C=C1/S/C(=N/NC(=O)c2ccccc2C)NC1=O	i	-16	-23	-38	8	-5	-1	9
CC(C)CN1CC(C(=O)O)CC1=O (centres undefined)	i	-17	-24	4	7	5	2	3
COc1ccc(CCN2C(=O)CC(Nc3ccc(N4CCOCC4)cc3)C2=O)cc1OC (centres undefined)	i	-10	-5	·	4	8	3	3
Cc1ccc(NC(=O)CCc2ccc(C)o2)c(Br)c1	·	-8	-20	18	-3	2	0	-7
CC(C)(C)Nc1nc(Nc2ccc([N+](=O)[O-])cc2)nc(NC(C)(C)C)n1	i	17	-10	6	2	-13	-16	-4
